Menin-MLL FL inh: inhibitors of human menin-MLL interaction, wild-type MLL peptide; Fluorescence polarization, fluorescein-MLL peptide displacement from menin; 290,000 tested, under 10 active; FP activity change, % at 61.4 µM; inconclusive = falling polarisation curve, or a change in total fluorescence; inactive = total fluorescence flat and polarisation flat or rising; no compound was filed as active; the % refers to the polarisation; negative = inhibition;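 also: % of control where 0% means no effect; inhibitors lower the polarisation; unlabelled MLL peptide was the positive control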
ClpP mod: qHTS Assay for Activators of ClpP. 340,000 tested, 1.9% active. purified B. subtilis ClpP, FRET peptide cleavage, 20 min. ATP-dependent Clp protease proteolytic subunit (Bacillus subtilis (strain 168)), P80244. Potency, µM (series often up to 57.5 µM), inactives show at the top dose activity change, negative = active; active = well fitted falling curve with a large enough effect; inconclusive = small, poorly fitted or top-dose-only effect; inactive = no such curve, though single readings can be large or run the other way; also: potency is read from the fitted curve at half-maximal effect; the source files actives as falling curves though it sought activators and does not explain the sign; nearly all actives have a fitted effect of over 65% in size; many hits overshoot -100%
Target sequence (P80244 whole entry, looked up): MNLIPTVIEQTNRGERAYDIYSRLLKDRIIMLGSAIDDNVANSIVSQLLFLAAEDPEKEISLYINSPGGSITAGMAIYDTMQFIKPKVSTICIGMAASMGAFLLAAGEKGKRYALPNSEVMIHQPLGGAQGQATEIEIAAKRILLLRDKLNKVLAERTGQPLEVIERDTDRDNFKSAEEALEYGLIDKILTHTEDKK
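ClpP 10 microg/mL final, pH 8 Tris/KCl buffer with BSA, glycerol, Tween-20; compound pinned in; FRET-FV substrate; RT 20 min; Ex320/Em430; ΔFRET vs ADEP 5.8 microM, DMSO, no enzyme.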
TRPML1 agonist: agonists of human TRPML1 channel; TRPML1-expressing cells, Ca2+ dye fluorescence, FDSS; host cell line not named in the record; reference of the full effect not given here; activation, % (test concentration not listed); 410,000 tested, 0.12% active; AID 624414; in the data active = activation above about 50%; inconclusive = about 30% to 50%; inactive = below about 30%; also: 0% is about no effect; the text of the record puts the active cut at 80%
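Tetracycline-induced TRPML1-DL cells are seeded and incubated overnight before loading with a no-wash Ca2+ dye and quencher. Agonist activity is taken from the 110 s fluorescence read following compound pin-transfer on an FDSS, before EC80 54-4 challenge.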
Sfp inh: blocks B. subtilis Sfp PPTase activity; Q9F4F7; 310,000 tested, 3.5% active; Biochemical Sfp PPTase activity, qHTS; Potency, µM, without a hit: max response, negative = inhibition, actives largely listed as inhibitors; AID 1490; active = well fitted inhibition curve with a large enough effect; inconclusive = small, poorly fitted or top-dose-only effect, or another doubt; inactive = no such curve, though single readings can be large or run the other way;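 also: the enzyme is Sfp with the accession as filed and its product quenches rhodamine fluorescence; potency is read from the fitted curve at half-maximal effect; 0% = enzyme reaction without inhibitor and -100% = no enzyme wells; top concentration of the series not given in the record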
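Compounds were incubated with enzyme (final 15 nM) for 15 min at room temperature before substrate addition started the reaction. Fluorescence at 525 nm excitation, 598 nm emission was recorded immediately and after 30 minutes.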
TRPML1 inh: inhibitors of human TRPML1 channel; TRPML1-inducible cells, Ca2+ dye fluorescence, FDSS; active compounds read low; inhibition of EC80 agonist-evoked calcium signal; Q9GZU1; 390,000 tested, 0.02% active; activity change, negative = inhibition, % (concentration not given with the values); in the data active means activity change below about -50%; inconclusive means about -30% to -50%; inactive means above about -30%;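 also: stimulus is agonist 54-4 at its EC80 concentration; % is scaled to controls: 0 for no effect and ±100 for the full control effect; the text of the record puts the active cut at -80%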
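Calcium fluorescence in TRPML1-DL cells induced overnight with Tet: a 110 s read after compound pin addition, then a 110 s antagonist read after challenge with 54-4 at 4 uM final (EC80).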
PINK1 modulator: modulators of PINK1 expression | PINK1 immunofluorescence, high-content cytometry, 24 h | Potency, µM (doses to about 76.6 µM), for inactives: at the highest dose activation (PINK1 increase), actives largely listed as activators | 410,000 tested, 0.2% active | AID 624263; active = well fitted activation curve with a large enough effect; inconclusive = small, poorly fitted or top-dose-only effect; inactive = flat fitted curve, though single readings scatter; cell line not stated here;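 also: potency is read from the fitted curve at half-maximal effect; % of control where 0% means no effect; nearly all actives have a fitted effect of over 65% in size; a mitochondrial uncoupler was the plate control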
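PINK1 protein level read as immunofluorescence by microplate cytometer in a fixed, stained stable cell line after 24 h exposure to five compound concentrations, with CCCP as control.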
TRPV1 PAM: human TRPV1 potentiation; Q8NER1; TRPV1-expressing cells, Fluo-8 calcium influx, capsaicin EC20 potentiation; host cell line not named in the record; control for the full effect not named in the record; potentiation, % at 8.33 µM; 320,000 tested, 0.02% active; AID 540277; active means potentiation above 80%; inconclusive means 30% to 80%; inactive means below 30%; also: 0% is about no effect
Target sequence (Q8NER1 whole entry, looked up): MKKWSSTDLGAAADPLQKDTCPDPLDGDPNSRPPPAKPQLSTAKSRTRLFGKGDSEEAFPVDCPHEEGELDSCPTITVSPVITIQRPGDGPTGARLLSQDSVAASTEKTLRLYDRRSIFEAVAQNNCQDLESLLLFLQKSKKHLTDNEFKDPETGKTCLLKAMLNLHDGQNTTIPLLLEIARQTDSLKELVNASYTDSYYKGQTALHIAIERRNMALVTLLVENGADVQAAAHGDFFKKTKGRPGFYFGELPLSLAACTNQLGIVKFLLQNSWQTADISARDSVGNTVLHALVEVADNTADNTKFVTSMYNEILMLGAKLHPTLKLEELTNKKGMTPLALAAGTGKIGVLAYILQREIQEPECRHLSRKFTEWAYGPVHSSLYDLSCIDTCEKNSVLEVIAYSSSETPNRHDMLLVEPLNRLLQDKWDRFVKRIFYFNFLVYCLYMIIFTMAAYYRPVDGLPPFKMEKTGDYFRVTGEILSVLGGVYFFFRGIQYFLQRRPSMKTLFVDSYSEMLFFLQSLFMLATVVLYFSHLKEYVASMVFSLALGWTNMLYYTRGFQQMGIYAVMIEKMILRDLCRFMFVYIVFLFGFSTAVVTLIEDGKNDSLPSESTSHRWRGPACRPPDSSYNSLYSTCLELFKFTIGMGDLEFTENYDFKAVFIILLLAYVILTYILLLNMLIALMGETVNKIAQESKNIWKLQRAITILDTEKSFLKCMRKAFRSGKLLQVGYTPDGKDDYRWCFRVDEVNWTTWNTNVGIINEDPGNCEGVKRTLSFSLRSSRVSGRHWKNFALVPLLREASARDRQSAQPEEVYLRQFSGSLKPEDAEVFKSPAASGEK
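TRPV1-expressing cells were cultured overnight at 35.5C and loaded with Fluo-8 calcium dye for 40 to 90 min at room temperature. After a 10 s baseline, compound was added and calcium influx was read kinetically for 3 min (ex 480/em 520 nm).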
* = called active by the depositor; ? = inconclusive; . = not tested or not shown; [ ] = another dose, or the depositor's remark.

The opening 2 records (preview)
Codes – A = Menin-MLL FL inh; B = ClpP mod; C = TRPML1 agonist; D = Sfp inh; E = TRPML1 inh; F = PINK1 modulator; G = TRPV1 PAM
[1] O=C(CC12CC3CC(CC(C3)C1)C2)NCCN1CCOCC1
  A: 1.0	B: 0.6%	C: -0.2	D: -0.8%	E: -6.7	F: 6.5%[38.3 µM]	G: -0.8
[2] COc1ccc(/C=C/C(=O)NCCOc2ccc(C)cc2)cc1
  A: -0.8	B: -9.9%	C: 4.8	D: 9.3%	E: 34.1	F: -1.1%	G: -18.4

All compounds of this part, from the first entry:
Codes – A = Menin-MLL FL inh; B = ClpP mod; C = TRPML1 agonist; D = Sfp inh; E = TRPML1 inh; F = PINK1 modulator; G = TRPV1 PAM
[1] O=C(CC12CC3CC(CC(C3)C1)C2)NCCN1CCOCC1
  A: 1.0	B: 0.6%	C: -0.2	D: -0.8%	E: -6.7	F: 6.5%[38.3 µM]	G: -0.8
[2] COc1ccc(/C=C/C(=O)NCCOc2ccc(C)cc2)cc1
  A: -0.8	B: -9.9%	C: 4.8	D: 9.3%	E: 34.1	F: -1.1%	G: -18.4
[3] CC(C)(C)n1nnnc1C(CCc1ccccc1)N1CCN(C/C=C/c2ccccc2)CC1 (stereo not drawn)
  A: .	B: 0.3%	C: -0.3	D: .	E: .	F: 17.2%	G: .
[4] COc1cc(C2NC(=S)NC(c3ccccc3)=C2C(C)=O)ccc1O (stereo not drawn)
  A: -0.6	B: -1.6%	C: 0.6	D: 13.3%	E: -6.0	F: -0.5%	G: -2.5
[5] CC(=O)NC(Cc1ccc(F)cc1)C(=O)NC1CCN(C(=O)NCc2ccccc2)CC1 (stereo not drawn)
  A: .	B: 0.6%	C: 6.7	D: 19.8%	E: 2.5	F: 3.3%	G: 4.1
[6] Cc1ccc(-c2nnc(SCC(C)C)n2C)cc1
  A: -0.8	B: 1.7%	C: -0.4	D: 9.3%	E: 10.2	F: -1.9%	G: 10.8
[7] CC(=O)c1cccc(NC(=O)C(C)OC(=O)c2cc(C)oc2C)c1 (stereo not drawn)
  A: .	B: -1.0%	C: 0.4	D: .	E: -13.9	F: 0.3%	G: -15.9
[8] CCN(CC)C(=S)NCCc1ccccc1
  A: -0.1	B: .	C: -0.6	D: -3.1%	E: -16.4	F: 0.8%	G: -7.2
[9] C[C@@H](CN1C2=NC[C@H](C)N2C[C@H]1Cc1ccc(O)cc1)NC(=O)CCC1CCCCC1
  A: -0.1	B: -2.9%	C: 0.0	D: 17.5%	E: 13.0	F: -0.5%	G: -14.7
[10] Cc1nc(NC(=O)/C=C/c2ccccc2)sc1C(=O)Nc1ccccc1
  A: 1.5	B: ?	C: -0.9	D: 6.4%	E: 2.0	F: 14.7%	G: -4.9
[11] COc1ccccc1CNC(=O)COC(=O)c1cccc(S(=O)(=O)N2CCOCC2)c1
  A: .	B: .	C: -0.2	D: .	E: -17.2	F: -3.7%	G: -2.3
[12] Cc1cc(C)cc(NCc2cc(=O)oc3cc(-c4ccccc4)c(O)cc23)c1
  A: 5.2	B: -6.9%	C: 1.1	D: 7.6%	E: 1.1	F: 10.2%	G: -7.1
[13] COc1ccc(C(NC(=O)C2CCN(C/C=C/c3ccc(OC(C)=O)c(OC)c3)CC2)c2ccccn2)cc1 (stereo not drawn)
  A: .	B: -2.7%	C: 0.3	D: .	E: .	F: -0.4%	G: .
[14] CCCCC(=O)NC(=O)NC(c1ccccc1)c1ccccc1
  A: 2.2	B: -0.8%	C: 0.6	D: 2.6%	E: ?	F: 4.5%	G: -1.6
[15] Cc1cccc(C(=O)Nc2ccc(-c3nc4ccccc4s3)cc2Cl)c1
  A: .	B: 25.1µM*	C: 1.2	D: .	E: -4.4	F: 0.3%	G: .
[16] O=C1CCCC2=C1C1(O)C(=O)c3ccccc3C1(O)O2 (stereo not drawn)
  A: -0.2	B: -0.3%	C: -0.9	D: 8.8%	E: -5.4	F: -0.5%	G: -0.9
[17] CCC1Oc2ccc(C)cc2N(CC(=O)N2CCOCC2)C1=O (stereo not drawn)
  A: 2.4	B: .	C: 2.7	D: 13.7%	E: -19.2	F: 0.8%	G: -7.9
[18] Cc1ccc2nc(-c3ccccc3NC(=O)CCC(=O)O)c(=O)[nH]c2c1
  A: -0.2	B: 0.6%	C: 0.7	D: 5.5%	E: -3.6	F: -0.9%	G: 0.7
[19] CCn1c(SCC(=O)O)nc2ccccc21
  A: -0.2	B: .	C: -0.2	D: 20.2%	E: 9.0	F: -1.9%	G: -12.0
[20] CCN(CC)S(=O)(=O)c1cccc(C(=O)OCC(=O)NC(C)c2ccccc2)c1 (stereo not drawn)
  A: 1.4	B: .	C: 0.6	D: 9.5%	E: -10.1	F: -2.7%	G: -10.2
[21] Cc1ccc2[nH]c(=O)c(C(c3nnnn3C(C)(C)C)N3CCN(C(=O)c4ccco4)CC3)cc2c1 (stereo not drawn)
  A: 3.9	B: ?	C: 2.8	D: 44.7µM*	E: 28.9	F: 4.1%[38.3 µM]	G: 3.2
[22] COC(=O)C1=C[C@@H](C(=O)OC)[C@@H]2C3=C(C(=O)C2(C)C)[C@H](c2ccccc2)[C@@H]2C(=O)N(c4ccccc4)C(=O)[C@@H]2[C@@H]3C1
  A: ?	B: .	C: 0.2	D: -2.3%	E: 16.4	F: .	G: .
[23] CC(NC(=O)COC(=O)c1cc(NS(=O)(=O)c2ccc(Cl)c([N+](=O)[O-])c2)ccc1O)C1CC2CCC1C2 (stereo not drawn)
  A: 2.2	B: 2.1%	C: 0.3	D: 29.4%	E: 5.4	F: -5.7%	G: 9.4
[24] O=C(O)CCSc1nc2ccccc2n1CCOc1ccccc1
  A: -2.4	B: 0.6%	C: -0.2	D: 23.6%	E: 22.1	F: .	G: -3.1
[25] Cc1ccc(NCc2nc(SCC(=O)Nc3ccccc3)n[nH]2)cc1
  A: -2.8	B: -6.9%	C: -0.5	D: 21.7%	E: 8.5	F: -1.3%	G: 2.2
[26] CNC[C@H]1Oc2ccc(NC(=O)C3CCCCC3)cc2CC(=O)N([C@H](C)CO)C[C@@H]1C
  A: .	B: -2.1%	C: 0.2	D: .	E: -5.6	F: 0.6%	G: .
[27] CC(=O)Nc1ccccc1Sc1ccc2c3c(cccc13)C(=O)N(c1ccc(C)cc1)C2=O
  A: 12.7	B: 1.0%	C: -0.5	D: -17.3%	E: 0.8	F: ?	G: 0.4
[28] COC(=O)c1ccc(/C=N/NC(=O)CC(=O)NC(C)C)cc1
  A: 0.8	B: -1.2%	C: 0.3	D: -0.5%	E: -12.5	F: .	G: -2.3
[29] O=C(Nc1nc2n(n1)C(c1ccc(Cl)cc1)CC(c1ccc(Cl)cc1)N2)c1ccco1 (stereo not drawn)
  A: 2.4	B: -5.4%	C: 5.7	D: 16.1%	E: -19.7	F: -2.8%	G: 3.2
[30] O=C(OCc1ccc(Cl)cc1)c1ccccc1C(=O)c1ccccc1
  A: 6.9	B: -1.7%	C: 0.7	D: -8.8%	E: -12.6	F: 4.4%	G: 1.3
[31] COc1ccccc1-c1ccc(=O)n(CC(=O)Nc2ccc(C(=O)N3CCCC3)cc2)n1
  A: 2.0	B: -1.8%	C: 1.9	D: -0.3%	E: -23.9	F: -0.6%[38.3 µM]	G: 7.6
[32] CCN(c1ccc(OC)cc1)S(=O)(=O)c1c(C(=O)N2CCCCCC2)c(C)n(C)c1C
  A: .	B: -0.2%	C: 0.5	D: .	E: -3.4	F: -0.1%	G: .
[33] CCCCNC(=O)C1(C)CCN1C(=O)c1ccc2c(c1)CCO2 (stereo not drawn)
  A: .	B: -2.6%	C: 0.1	D: .	E: ?	F: 0.1%	G: .
[34] CCOC(=O)c1c(C)[nH]c(C)c1C(=O)COC(=O)Cc1n[nH]c(=O)c2ccccc12
  A: .	B: -0.3%	C: 1.1	D: .	E: -3.5	F: 4.8%	G: .
[35] O=C(O)c1cccc(CSc2nnc(COc3ccccc3)o2)c1
  A: -1.3	B: -1.4%	C: -0.4	D: 14.1%	E: -15.6	F: 2.8%	G: 11.2
[36] O=C1NC(=S)NC1=Cc1ccco1
  A: .	B: .	C: 2.2	D: .	E: -4.6	F: 0.8%	G: .

Reformatted: nine of the compounds above
#1 O=C(CC12CC3CC(CC(C3)C1)C2)NCCN1CCOCC1
#2 COc1ccc(/C=C/C(=O)NCCOc2ccc(C)cc2)cc1
#3 CC(C)(C)n1nnnc1C(CCc1ccccc1)N1CCN(C/C=C/c2ccccc2)CC1 (stereo not drawn)
#4 COc1cc(C2NC(=S)NC(c3ccccc3)=C2C(C)=O)ccc1O (stereo not drawn)
#5 CC(=O)NC(Cc1ccc(F)cc1)C(=O)NC1CCN(C(=O)NCc2ccccc2)CC1 (stereo not drawn)
#6 Cc1ccc(-c2nnc(SCC(C)C)n2C)cc1
#7 CC(=O)c1cccc(NC(=O)C(C)OC(=O)c2cc(C)oc2C)c1 (stereo not drawn)
#8 CCN(CC)C(=S)NCCc1ccccc1
#9 C[C@@H](CN1C2=NC[C@H](C)N2C[C@H]1Cc1ccc(O)cc1)NC(=O)CCC1CCCCC1
Assay by compound,1,2,3,4,5,6,7,8,9
Menin-MLL FL inh,1.0,-0.8,.,-0.6,.,-0.8,.,-0.1,-0.1
ClpP mod,0.6%,-9.9%,0.3%,-1.6%,0.6%,1.7%,-1.0%,.,-2.9%
TRPML1 agonist,-0.2,4.8,-0.3,0.6,6.7,-0.4,0.4,-0.6,0.0
Sfp inh,-0.8%,9.3%,.,13.3%,19.8%,9.3%,.,-3.1%,17.5%
TRPML1 inh,-6.7,34.1,.,-6.0,2.5,10.2,-13.9,-16.4,13.0
PINK1 modulator,6.5%[38.3 µM],-1.1%,17.2%,-0.5%,3.3%,-1.9%,0.3%,0.8%,-0.5%
TRPV1 PAM,-0.8,-18.4,.,-2.5,4.1,10.8,-15.9,-7.2,-14.7

Compound activity from PubChem BioAssay.
